Mtb H37Rv = M. tuberculosis H37Rv growth inhibitors, H37Rv strain (AID 1626); M. tuberculosis H37Rv growth inhibition; higher % means a stronger effect; inhibition, % at 10 µM, or IC50 in µM where a hit was titrated; 220,000 tested, 0.95% active;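 active means confirmed in a dose series; inconclusive means inhibition above 80% but not taken into the dose series; inactive means below 80% or under 30% at every dose of the series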;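 further: bacteria incubated seven days before Alamar blue readout; 0% = bacteria only wells and 100% = bacteria with antibiotic wells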
Mtb betalactam = beta-lactam sensitization of Mtb H37Rv; AID 434955; inhibition, % at 25 µM; M. tuberculosis H37Rv growth with meropenem, percent inhibition; hits of this screen are not shown here; 330,000 tested, 0.27% active;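 active means about 74% or more and at least 40 points above the plate without the antibiotic, then above 30% in a dose series; inconclusive means first-round hits that could not be retested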;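 further: growth measured after seven days incubation then overnight dye step; 0% = bacteria only wells and 100% = bacteria with antibiotic; twin plates without the antibiotic show which effects depend on it; some results filed as inactive read as strong as hits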
RecA splice inh = inhibitors of M. tuberculosis RecA intein splicing; P9WHJ3; inhibition, %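 (about 9 µM by stock and volumes)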; 290,000 tested, 0.75% active; cell-free RecA intein splicing, fluorescence; in the data active means inhibition above about 30%; inconclusive means no clear call, values can overlap the other calls;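 further: 0% = vehicle wells and 100% = reference inhibitor control wells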
Target sequence (P9WHJ3 whole entry, looked up, canonical isoform): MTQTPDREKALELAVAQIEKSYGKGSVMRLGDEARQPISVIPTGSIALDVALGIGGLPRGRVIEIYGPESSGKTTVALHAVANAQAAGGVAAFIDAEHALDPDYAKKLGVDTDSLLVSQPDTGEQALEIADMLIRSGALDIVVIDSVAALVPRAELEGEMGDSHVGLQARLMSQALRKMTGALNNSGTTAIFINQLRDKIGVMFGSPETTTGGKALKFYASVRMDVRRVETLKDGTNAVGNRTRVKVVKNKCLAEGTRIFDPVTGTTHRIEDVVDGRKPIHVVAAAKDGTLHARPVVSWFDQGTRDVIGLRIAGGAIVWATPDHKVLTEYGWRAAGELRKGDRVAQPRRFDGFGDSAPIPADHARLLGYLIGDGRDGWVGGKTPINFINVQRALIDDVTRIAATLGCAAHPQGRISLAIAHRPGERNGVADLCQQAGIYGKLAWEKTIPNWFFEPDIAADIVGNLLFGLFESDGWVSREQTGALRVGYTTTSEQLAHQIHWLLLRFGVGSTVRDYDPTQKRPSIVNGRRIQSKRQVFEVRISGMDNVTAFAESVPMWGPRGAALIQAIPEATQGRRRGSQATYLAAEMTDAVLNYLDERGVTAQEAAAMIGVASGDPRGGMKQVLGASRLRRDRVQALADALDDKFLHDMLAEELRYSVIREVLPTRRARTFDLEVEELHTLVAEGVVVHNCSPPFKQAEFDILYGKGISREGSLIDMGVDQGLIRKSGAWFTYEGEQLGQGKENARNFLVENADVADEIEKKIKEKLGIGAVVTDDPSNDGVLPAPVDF
Arbovirus anti = blocks arbovirus infection | arbovirus infection cell-based antiviral screen | inhibition, % at 10 µM | 200,000 tested, 0.37% active | AID 1251;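 active means inhibition from about 30%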;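 further: bluetongue infection of BSR cells; cell survival read as ATP light after 72 h; 0% = infected wells without compound and 100% = uninfected wells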
YopH PTP inh = blocks Yersinia enterocolitica YopH tyrosine phosphatase | fluorescence Ex485/Em525 | inhibition, %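 (about 10 µM by stock and volumes)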 | 140,000 tested, 0.16% active | AID 898;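 active means inhibition of 50% or more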;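 further: controls were vehicle for no effect and minimum signal wells for full effect; inactives centre near -20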
Arbovirus anti repeat = second read-out of Arbovirus anti, no call of its own (marks repeat the call); inhibition, %; measured here: 10K subset replicate screen; many hits read low in the repeat;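 first of two repeat runs on a subset; 0% = infected and 100% = uninfected wells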
The depositor's hits bear a star; ? = inconclusive; · = no result given. An excerpt. The share of hits here may be higher or lower than overall.

SMILES	Mtb H37Rv	Mtb betalactam	RecA splice inh	Arbovirus anti	YopH PTP inh	others
CC(=O)c1cc2c(cc1NC(=O)c1cc(C)nn1-c1ccccc1)OCO2	·	-2	-3.6	-21	-19
O=C(COC(=O)CCc1c[nH]c(=O)[nH]1)Nc1ccccc1Cl	1%	-1	-17	0	-34
O=S(=O)(c1ccc(F)cc1)N1CCn2c(nc3ccccc32)C1	6%	0	4.4	10	-60
O=C(O)c1ccccc1N/N=C/c1cc(Br)cc(Br)c1O	-2%	0	-1.4	·	·
CC(C)(C)C(=O)Nc1nnc(-c2ccccc2)c(-c2ccccc2)n1	-4%	-6	-2.3	·	·
O=C(NC1CCCCC1)c1c(O)nc2sccn2c1=O	·	1	0.5	·	·
COc1ccc(-c2cc(=O)[nH][nH]2)cc1	0%	-9	98*	-1	-4
CCOC(=O)C(NCCc1ccccc1)(NC(=O)CC)C(F)(F)F (centres undefined)	0%	-9	-3.7	15	-12
O=S(=O)(Nc1ncccn1)c1ccc(NC(=S)NCCc2ccccc2)cc1	-2%	-11	-2.4	3	·
Cc1cc(C)c(S(N)(=O)=O)c(C)c1N(C)S(=O)(=O)c1ccc(Cl)cc1	·	-3	4.9	·	·
COc1cccc(=O)c2c(C)n(CC(=O)c3ccccc3)c(C)c12	6%	-2	8.7	-3	·
CC(=O)NC1N=C(C)N(c2ccccc2)C1=O (centres undefined)	4%	0	52*	1	-15
COc1ccc(C(=O)c2c(C)oc3cc([N+](=O)[O-])c(O)c([N+](=O)[O-])c23)cc1	·	10	8.6	6	-18
Cc1c(NS(=O)(=O)c2ccc(NCCN3CCOCC3)c([N+](=O)[O-])c2)c(=O)n(-c2ccccc2)n1C	2%	-3	-1.7	1	·
CCCCn1c(C)nc2c(=O)n(C)c(=O)[nH]c21	-4%	3	-1.2	4	-27

The final 4 compounds of the section above are carried over, then new ones follow:
SMILES	Mtb H37Rv	Mtb betalactam	RecA splice inh	Arbovirus anti	YopH PTP inh	others
CC(=O)NC1N=C(C)N(c2ccccc2)C1=O (centres undefined)	4%	0	52*	1	-15
COc1ccc(C(=O)c2c(C)oc3cc([N+](=O)[O-])c(O)c([N+](=O)[O-])c23)cc1	·	10	8.6	6	-18
Cc1c(NS(=O)(=O)c2ccc(NCCN3CCOCC3)c([N+](=O)[O-])c2)c(=O)n(-c2ccccc2)n1C	2%	-3	-1.7	1	·
CCCCn1c(C)nc2c(=O)n(C)c(=O)[nH]c21	-4%	3	-1.2	4	-27
CC1(C)N=C(SCC(=O)Nc2ccc(Cl)cc2)C(c2ccc(Cl)cc2)=N1	-5%	-2	44*	1	-35
Cc1ccc(-c2csc3ncnc(N4CCc5ccccc5C4)c23)cc1	10%	?	14	-28	14
CC1=C(C(=O)OCC2CCCO2)C(c2cccc(C(F)(F)F)c2)C2=C(CC(c3ccco3)CC2=O)N1 (centres undefined)	7%	-9	-12	-9	-16
COc1ccccc1NS(=O)(=O)c1cccc(C(=O)NN=C2CCCCCC2)c1	-6%	-3	1.6	0	-23
O=C(CSc1nnc(NC(=O)c2ccco2)s1)NCc1ccc2c(c1)OCO2	-9%	1	-0.8	-3	·
N#Cc1ccccc1NC(=O)CSc1n[nH]c(-c2ccco2)n1	·	6	-3.5	·	·
O=C(Cn1nnc2ccccc2c1=O)NCC1CCC(C(=O)O)CC1 (centres undefined)	-6%	-3	4.0	·	·
NS(=O)(=O)c1ccc(CCNC(=O)CC(c2ccccc2)c2ccccc2)cc1	·	2	0.0	·	·
COC(=O)CCC(=O)NNC(=O)CCCOc1ccc(Cl)cc1Cl	-5%	·	2.4	-7	-3
O=C(COc1ccc(Cl)cc1)Nc1ccccc1C(=O)NCc1cccnc1	·	-16	-0.3	·	·
CCc1sc(/C=C(/C#N)C(N)=S)cc1[N+](=O)[O-]	9%	·	·	-5	·
Oc1ccc(Cl)cc1CNc1ccc(Br)cn1	2%	-5	5.0	-4	18
COc1cc(OC)cc(-c2cc(N)n(S(=O)(=O)c3cccc4nsnc34)n2)c1	2%	2	-0.5	·	·
O=C(NNC(=S)Nc1ccc(Br)cc1)c1ccc(N2CCOCC2)c([N+](=O)[O-])c1	11%	2	6.6	-16	-20
CCCCn1c(=O)[nH]c(=O)c2c1ncn2Cc1ccco1	-5%	-7	-5.1	-1	2
CCOc1ccc(CC(=O)Nc2ccc(S(=O)(=O)N3CCCC3)cc2)cc1	·	-11	-27	·	·
COC(=O)c1ccc(Oc2cc(C)nc(Cl)n2)cc1	1%	4	-2.7	13	·
COCc1[nH]c(=S)c(C#N)cc1C(=O)OC	-4%	3	1.8	·	·
COc1ccc(-c2n[nH]c(=S)n2-c2ccc(C)cc2)cc1OC	·	-5	-0.2	·	·
Nc1cc(=O)[nH]c(SCC(=O)c2ccc(F)cc2)n1	·	-1	-2.2	·	·
CCCN(Cc1ccccc1)C(=S)Nc1ccc(OC(F)F)cc1	58%	-3	-2.8	16	-31
O=C(Nc1cc(C(=O)Nc2ccccc2C(=O)O)cc(C(=O)Nc2ccccc2C(=O)O)c1)c1ccccc1	·	-3	4.3	·	·
O=C(Nc1nc(=S)ss1)c1c(F)cccc1F	-4%	0	3.0	11	-47
COc1ccc(CCn2c(-c3ccc(Cl)cc3)n[nH]c2=S)cc1OC	2%	-5	6.6	4	·
O=C(CCNc1ccc(F)cc1)c1cc2ccccc2o1	-9%	16	1.2	-2	·
O=C(O)c1cccc(S(=O)(=O)Nc2ccc3oc(=O)sc3c2)c1	1%	2	0.8	-6	-21
COc1ccc2c(=O)c3c(=O)n(Cc4ccco4)c(-c4cc(OC)c(OC)c(OC)c4)nc3oc2c1	2%	-2	1.5	-12	39
CC(C)CNC(=O)COC(=O)c1ccc(F)cc1Cl	0%	17	0.4	13	·
CCCn1c(C(O)c2ccc(C)cc2)nc2ccccc21 (centres undefined)	·	3	0.8	·	·
CCCCNC(=O)c1onc(CSc2ccccc2C)c1C(=O)O	-6%	·	0.7	-5	-44
CCc1ccc(OCC(=O)NCc2ccco2)c(Br)c1	10%	4	6.6	-22	-3
O=C(NC1CCCCCC1)c1ccc(Cl)c(S(=O)(=O)N2CCOCC2)c1	·	-8	0.7	·	·
Cc1cc(Cl)c2oc(C(=O)N(C)CC3CCOCC3)c(C)c2c1	·	4	1.8	·	·
COc1cccc(NC(=O)NCCC2=CCCCC2)c1	13%	-8	2.8	-7	·
COc1ccccc1N1CCN(C(=O)C(=O)c2c(C)[nH]c3ccccc23)CC1	·	3	-1.9	·	·
CCOC(=O)CSc1nnc(C)c(C)n1	-14%	-7	-2.0	·	·
Cc1ccc(NS(=O)(=O)c2cc(NC(=O)c3ccc4c(c3)NC(=O)CS4)ccc2C)c(C)c1	11µM*	92	-4.4	-12	·
CC(C)C(C(=O)O)N1C(=O)/C(=C/c2cccn2C)SC1=S (centres undefined)	7%	2	·	3	-27
CCOc1ccc(S(=O)(=O)N2CCC(C(=O)NCc3cccnc3)CC2)cc1Cl	·	-2	0.3	·	·
CCOC(=O)C(=O)c1cn(C2OCC(OC(C)=O)C(OC(C)=O)C2OC(C)=O)c2ccccc12 (centres undefined)	64%	-3	1.6	9	-20
COCCNC(=O)CN1CCN(Cc2cccc(Cl)c2)C1=O	4%	-6	-2.4	4	-23	Arbovirus anti repeat=-2
COc1cccc(NC(C)=[N+](C)CCNS(=O)(=O)c2ccc(Cl)cc2)c1	·	7	3.2	·	·
C/C(=N\NC(=O)c1ccoc1C)c1ccc(Cl)s1	·	40	-3.1	·	·
Cc1cccc(NC(=O)CSc2nc3ccccc3nc2N2CCCC2)c1	·	-1	0.0	·	·
O=C(CCNC(=O)c1ccco1)Nc1ccccc1OC(F)F	·	3	-2.2	·	·
CS(=O)(=O)N(CC(=O)Nc1ccc(S(=O)(=O)N2CCOCC2)cc1)c1cccc(F)c1	-7%	-3	0.7	-2	·
O=C(CCn1cnc2ccccc21)N=Nc1c(O)[nH]c2ccccc12	-9%	-8	0.6	·	·
Cc1cccc(N2CCCn3c2nc2c3c(=O)[nH]c(=O)n2C)c1	·	-4	0.3	·	·
COc1ccccc1NC(=O)c1c(C)oc2c1CCCC2	-17%	89	5.6	6	35
COC(=O)Cc1cc(=O)[nH]c(Nc2nc3ccccc3o2)n1	13%	73	13	-4	-28	Arbovirus anti repeat=-4
Cc1sc2nc(CSC(C)C(=O)N(C)CC(=O)Nc3ccccc3C(F)(F)F)[nH]c(=O)c2c1C (centres undefined)	·	-6	-1.0	·	·
Cc1cc(NC(=O)CSc2nnc3c(C)cc4c(C)ccc(C)c4n23)no1	1%	-1	1.9	-16	-30
COc1ccc(NC(=O)c2ccc(Cl)c(S(=O)(=O)N3CCc4ccccc4C3)c2)cn1	8%	99	12	-20	-20
COc1ccc2nc(C)cc(SCC(=O)N/N=C/c3cccc4ccccc34)c2c1	-1%	-1	0.9	-12	-19
COc1ccc(C(=O)Nc2ccccc2C(=O)NCCCn2ccnc2)cc1	4%	·	1.7	-6	-41	Arbovirus anti repeat=4
Cc1ccc(S(=O)(=O)NC(=O)c2ccc(Br)o2)cc1	-10%	-13	-3.0	0	-31
CCCCNC(=O)c1ccc2c(SCC(=O)O)c3c(nc2c1)CCCC3	4%	1	0.0	8	-22
O=C(OCCN1CCCCC1)c1cccc(Cl)c1	·	12	-1.1	·	·
CCOC(=O)c1ccc2c(c1)N(CC)C(=O)c1ccccc1S2	·	0	7.4	·	·
CSc1ccc(S(=O)(=O)NCC(=O)OCC(=O)N2CC(C)CC(C)C2)cc1[N+](=O)[O-] (centres undefined)	·	-8	9.4	·	·

Three compounds already listed, ordered by length of the SMILES, descending.
SMILES	Mtb H37Rv	Mtb betalactam	RecA splice inh	Arbovirus anti	YopH PTP inh	others
CS(=O)(=O)N(CC(=O)Nc1ccc(S(=O)(=O)N2CCOCC2)cc1)c1cccc(F)c1	-7%	-3	0.7	-2	·
Cc1ccc(S(=O)(=O)NC(=O)c2ccc(Br)o2)cc1	-10%	-13	-3.0	0	-31
COc1ccccc1NC(=O)c1c(C)oc2c1CCCC2	-17%	89	5.6	6	35

New compounds follow:
SMILES	Mtb H37Rv	Mtb betalactam	RecA splice inh	Arbovirus anti	YopH PTP inh	others
O=C(CN1CCN(Cc2ccccc2)CC1)Nc1ccc([N+](=O)[O-])cc1C(=O)Nc1ccccc1F	13%	69	-0.6	-14	-28
Cc1ccccc1-n1nnnc1SC(C)C(=O)NC1CCCc2ccccc21 (centres undefined)	10%	-5	1.3	3	-28
CCCN1CCN(C(=O)C2CCN(S(=O)(=O)c3c(C)noc3/C=C/c3ccc(C)cc3)CC2)CC1	·	38	0.2	·	·
CC(NC(=O)c1ccc(Br)o1)C1CCCO1 (centres undefined)	·	-5	-2.7	·	·
O=C(NCCCN1CCCC1=O)c1ccc2c(=O)n(-c3ccccc3F)c(=S)[nH]c2c1	-6%	-1	-2.0	-5	·
O=C1NC(c2ccc(Cl)c([N+](=O)[O-])c2)Nc2ccccc21 (centres undefined)	-1%	-5	-2.6	9	·
Cc1cccc(N2CCN(C(=O)CCC(=O)N3CCOc4ccc(Cl)cc43)CC2C)c1 (centres undefined)	·	2	7.1	·	·
COc1ccc(S(=O)(=O)c2c[nH]c(=S)[nH]c2=O)cc1Cl	·	-7	-2.9	·	·
CC1(C)CC(=O)N(CC(=O)NCc2ccc(F)cc2)c2ccccc2S1(=O)=O	-4%	-11	-0.3	5	-42
COCCCNC(=S)NNC(=O)c1cc(Cl)c(O)c(Cl)c1	-2%	-9	-1.1	·	·
CCOc1ccc(S(=O)(=O)N2CCOCC2)cc1NC(=O)C1=COCCO1	·	-10	-8.5	·	·
COc1ccc(C)cc1NC(=O)CN1C(=O)c2cccc3cccc1c23	-5%	1	-37	-5	-2
O=S1(=O)CCN(Cc2ccccn2)CC1	·	1	0.8	·	·
COc1ccc(SCC(=O)Nc2ccc(N3CCN(C)CC3)c(F)c2)cc1	9%	0	-2.1	5	·
CC(C)Nc1ccc(C(CC(N)=O)NC(=O)c2ccc(Br)cc2)cc1[N+](=O)[O-] (centres undefined)	-7%	-8	2.2	·	·
COc1ccc(C(=O)NC(=O)COC(=O)C2COc3ccccc3O2)cc1 (centres undefined)	-6%	0	-1.8	12	-11
CCOC(=O)C1CCN(S(=O)(=O)c2ccc(-c3cc(C(F)(F)F)n(C)n3)s2)CC1	-6%	-3	0.3	·	·
COc1cc(CN(C(=O)c2cccs2)C2CCS(=O)(=O)C2)cc(OC)c1OC (centres undefined)	·	0	2.0	·	·
Oc1ccc(C2=NNC(c3ccc(O)cc3)=NN2)cc1	·	0	-1.6	·	·
Cc1ccc(CNc2cnccn2)cc1	8%	-3	-0.1	-2	-38
CC1CC(C)CN(CCCNS(=O)(=O)c2ccc3c(c2)oc(=O)n3C)C1 (centres undefined)	·	-2	-4.5	·	·
Nn1c(SCc2cccc(Oc3ccccc3)c2)nnc1C(F)(F)F	11%	2	1.7	4	-20
